Rce1 inhib: blocks yeast Ras-converting enzyme; Q03530; yeast membranes, quenched prenylated peptide cleavage fluorescence; calls only; actives 0.27% (n = 290,000); AID 2563;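 active means fall in fluorescence gain of 50% or more versus controls, with final raw signal at or below 3038400; inconclusive means same 50% fall but final raw signal above 3038400; inactive means fall in fluorescence gain under 50%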;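 further: plate controls were neutral control wells for no effect and wells lacking membranes for full effect; tested at 10 µM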
Target sequence (Q03530 whole entry, looked up): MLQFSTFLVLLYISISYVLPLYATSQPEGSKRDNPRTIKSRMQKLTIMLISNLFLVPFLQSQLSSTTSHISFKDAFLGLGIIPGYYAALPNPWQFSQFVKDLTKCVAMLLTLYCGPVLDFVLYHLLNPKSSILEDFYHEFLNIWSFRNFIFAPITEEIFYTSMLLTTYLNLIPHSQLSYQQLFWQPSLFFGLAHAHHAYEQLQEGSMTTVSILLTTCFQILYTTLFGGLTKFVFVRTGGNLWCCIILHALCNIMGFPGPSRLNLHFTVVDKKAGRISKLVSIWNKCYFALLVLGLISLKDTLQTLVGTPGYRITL
CSC inhib: blocks cancer stem cells | cancer stem cell-like cells viability, luminescence | inhibition, % at 7.5 µM | actives 1.1% (n = 300,000);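 active means mean at 75% or more and at least half the replicates too; inconclusive means mean and replicates disagree; tested in HMLE shEcad cells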;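 further: 0% = median of negative and 100% = median of positive control wells; the first replicate is given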
UUG fidelity: alters start codon recognition fidelity in yeast | S. cerevisiae UUG-firefly luciferase reporter, luminescence/redox ratio | activity score, % at 18.7 µM | actives 0.13% (n = 350,000) | AID 602363;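 active means replicate mean at a twofold rise or more, about +100% in these data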;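 further: firefly luciferase made from a UUG start codon reports start codon fidelity; reporter light over untreated wells divided by growth signal over untreated wells; some hits fall short of that in this replicate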
PABP polyA inh: PABP-poly(A) binding inhibition; inhibition, % at 35 µM; PABP-poly(A) RNA binding, fluorescence polarization; AID 2014; P11940; actives 1% (n = 290,000);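 active means 50% or more with normal probe brightness, or confirmed in later tests; inconclusive means above 50% with abnormal brightness, or retests that disagree; inactive means below 50% or failed in later tests; about a fifth of its hits are not listed in these tables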;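 further: calls also rest on retests at 20 µM and on dose response follow-up; controls were probe without protein and protein plus probe with vehicle; some compounds called inactive have numbers as strong as hits; many hits fall short of the cut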
MT1-MMP act inh: MT1-MMP (human) activation inhibition; P50281; HT1080 RFP-PRO-GFP cells, GFP/RFP ratio fluorescence, overnight; percent of plate control window, DMSO zero; GFP/RFP ratio change, % at 20 µM; actives 0.061% (n = 360,000); AID 651647;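 active means GFP/RFP ratio change of at least 30% with cell ATP level not reduced by more than half and red fluorescence within 50% of control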; further: strong numbers were not always called active
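Assay system: HT1080 cells carrying an RFP-PRO-GFP reporter | Dosing: Single dose of 20 µM compound, 1% DMSO final | Incubation: Cells overnight before dosing, compound overnight, 37 °C, 5% CO2 | Evaluation: GFP/RFP fluorescence ratio | Control set: DMSO and RFP-L50D-GFP cell wells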
eIF4H inh: inhibitors of RNA binding by human eIF4H | eIF4H fluorescence polarization binding assay | inhibition, % at 35 µM | actives 0.94% (n = 290,000);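 active means 50% or more with normal probe brightness, or confirmed in later tests; inconclusive means above 50% with abnormal brightness, or retests that disagree; inactive means below 50% or failed in later tests; about a fifth of its hits are not listed in these tables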;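 further: calls also rest on retests at 20 µM and on dose response follow-up; 0% = protein and probe with vehicle and 100% = probe without protein; strong numbers were not always called active; many hits fall short of the cut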
Env fusion inh: inhibitors of HIV Env-mediated cell fusion; HeLa-JRFL Env/CEM21 cell fusion, luciferase; inhibition, % at 12.3 µM; actives 1.1% (n = 360,000);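 active means mean replicate inhibition score of at least 50 and every replicate individually at or above 50; inconclusive means only one of the two criteria met; inactive means mean below 50 and not all replicates reaching 50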;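 further: 0% = plate neutral controls and 100% = maraviroc near 300 nM; one replicate is shown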
MT1-MMP act inh RFP: also measured in MT1-MMP act inh; calls as there; RFP signal change, %; measured here: RFP expression control read;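 0 = vehicle wells; hits needed this value within 50% of zero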
The depositor's hits bear a star; i = inactive; ? = inconclusive; . = not tested or not shown; + = active, no number. The order is random, and some 3% of all compounds hit somewhere here.

#	Compound	Rce1 inhib	CSC inhib	UUG fidelity	PABP polyA inh	MT1-MMP act inh	MT1-MMP act inh RFP	eIF4H inh	Env fusion inh
1	COc1ccc(N(C(=O)/C=C/C(=O)Nc2cc(C)on2)C(C(=O)NC2CCCC2)c2ccccc2C)cc1 (stereo not drawn)	i	14.6	.	1.2	-11.9	-13.9	-3.6	25.5
2	O=C(COC(=O)/C=C/c1ccccc1[N+](=O)[O-])Nc1ccc(S(=O)(=O)N2CCOCC2)cc1	.	-1.4	-2.5	.	0.8	1.8	.	9.5
3	CCc1ccccc1NC(=S)NNC(=O)c1ccccc1Cl	i	-7.0	-29.9	-10.6	0.6	-3.3	8.1	-4.8
4	O=S(=O)(c1ccc(NC2CCCc3ccccc32)nc1)N1CCOCC1 (stereo not drawn)	.	-11.5	5.7	0.5	-4.5	-1.7	-9.0	-3.4
5	CCOC(=O)Cc1csc(NC(=O)CSC2=NCCS2)n1	i	-6.6	-0.3	6.0	-0.6	-0.9	-3.3	-4.8
6	Cc1noc(C)c1COc1ccc(C(=O)OCC(=O)N2c3ccccc3NC(=O)C2(C)C)cc1	i	15.1	-5.8	36.9	-1.5	-3.4	48.4	.
7	O=C(O)c1ccccc1-c1nnc2c(Cl)cc(C(F)(F)F)cn12	i	-5.1	-5.6	-1.2	3.2	3.2	-2.2	-15.5
8	O=C(NCCc1nc2ccccc2[nH]1)/C(=C/c1ccc(F)cc1)NC(=O)c1ccco1	i	-1.4	.	-7.7	-1.0	2.2	0.6	27.0
9	CCCNC(=O)C1(C)CCN(C(=O)COc2ccc(C(C)(C)C)cc2)C1 (stereo not drawn)	.	.	-11.8	.	8.4	8.9	.	-20.1
10	CCCN(CCC)CCNC(=O)c1cc2c(-c3ccc(Cl)cc3)nn(C)c2s1	+	102.4*	-4.7	4.4	1.0	-1.9	1.3	-53.3
11	COc1ccc2nc(SCC(=O)NC3CCCCC3C)[nH]c2c1 (stereo not drawn)	.	41.1	-1.6	.	0.6	-6.0	.	30.9
12	CCN(c1ccc(C)cc1C)S(=O)(=O)c1nnc(NC(=O)C(C)C)s1	i	4.9	-13.4	4.9	2.7	-4.8	-5.9	2.6
13	CCCn1c(=O)n(CC(=O)NCC2CCCO2)c(=O)c2c3c(sc21)COC(C)(C)C3 (stereo not drawn)	i	9.7	-13.3	9.6	-1.7	2.5	-7.3	-9.7
14	COc1cccc(CNC(=O)C2CCN(S(=O)(=O)c3ccc4c(c3)CCC(=O)N4)CC2)c1	i	3.9	-3.5	5.3	1.1	6.8	4.5	-10.8
15	CCO[C@H]1OC(C(=O)N2CCOCC2)=C[C@@H](c2ccc(C(F)(F)F)cc2)[C@@H]1CCCO	i	8.3	4.5	12.7	-4.1	3.6	-0.9	?
16	CCO[C@@H]1OC(C(N)=O)=C[C@H](C2CCCCC2)[C@H]1CCCO	i	-14.2	3.4	4.5	2.9	0.2	-12.2	6.6
17	COc1ccc(-c2nc3ccc(Br)cn3c2Cc2ccccc2C(F)(F)F)cc1OC	.	.	-3.6	.	0.8	-2.0	.	12.3
18	O=C(CSc1nc2c(sc3ccccc32)c(=O)n1Cc1ccccc1)NCC1CCCO1 (stereo not drawn)	i	-12.1	.	-8.6	1.4	-0.8	-6.6	-11.3
19	Cc1cc(C)c2nc(N(CCCN(C)C)C(=O)C3=COCCO3)sc2c1	i	5.3	-8.7	.	-3.6	-0.4	.	3.4
20	CCOC(=O)C1=NN(c2cccc(Cl)c2)C2=NC(C)=C(C(=O)OC)C(c3cccs3)N12 (stereo not drawn)	i	2.4	-10.8	-3.4	0.4	1.0	14.3	51.0
21	COC(=O)[C@@H]1Cc2c([nH]c3ccccc23)C(C)N1C(=O)c1ccccc1 (stereo partly drawn)	i	11.1	3.8	-2.2	9.0	-14.6	2.4	-7.8
22	CC(C)[C@H](N)C(=O)NC[C@H]1CC[C@H](C(=O)N[C@@H](Cc2ccccc2)C(=O)O)CC1	i	10.0	1.4	-0.5	-2.2	0.8	-1.9	16.5
23	CCOC(=O)c1c(-c2cccs2)csc1NC(=O)C(C)(C)C	i	.	-7.1	3.2	-3.9	-6.3	-3.5	-183.2
24	C=CCOc1cccc(/C=N/NC(=O)CC(=O)NC2CCCCC2)c1	.	-11.3	-9.8	-2.0	4.8	2.9	-2.9	9.8
25	O=S(=O)(NC1CCN(Cc2ccccc2)CC1)c1ccc(Cl)cc1	i	26.4	-10.4	2.1	4.7	-0.3	-0.9	-4.7
26	C=C1C2(C(=O)Nc3ccc(SC(F)F)cc3)CCC(C2)C1(C)C (stereo not drawn)	i	-7.9	1.4	6.6	2.0	-3.4	-6.6	.
27	CCc1ccc(NC(=O)C(C)Nc2ccc(S(=O)(=O)NC(C)=O)cc2)cc1 (stereo not drawn)	i	2.8	-9.2	28.0	2.7	-0.3	-4.4	-66.4
28	O=S(=O)(Nc1ccccc1)c1ccc(F)cc1	i	0.3	-11.1	-0.8	1.2	4.6	2.4	-21.4
29	CCC(C)c1ccc(OCCn2cc(/C=N/NC(=O)CSc3nnc(C)s3)c3ccccc32)cc1 (stereo not drawn)	i	24.0	-1.9	10.4	-2.3	-11.1	4.2	30.6
30	COc1ccc(C2OC(=O)Cc3cc(OC)c(OC)cc32)cc1 (stereo not drawn)	i	12.1	-1.8	7.6	9.6	7.2	-7.4	3.8
31	O=C(O)c1ccccc1C(=O)N1CCN(Cc2ccc3c(c2)OCO3)CC1	i	.	-15.0	-0.4	-3.1	2.2	1.6	-14.5
32	Cc1cccc(N(Cc2ccccc2)C(=O)C2CCN(C(=O)c3ccccc3C)CC2)c1	.	-11.4	-3.8	.	-3.6	-4.5	.	.
33	CC(C)c1nc2oc3c(N4CCN(C)CC4)ncnc3c2c2c1CCC2	.	.	-8.1	23.8	-4.8	-10.4	9.7	-14.9
34	CCn1c(NC2CCCCC2)nc2ccccc21	i	-6.3	-2.0	3.3	5.9	0.5	-9.0	-4.3
35	c1ccc(-c2noc(-c3ccccc3-c3ccccc3)n2)cc1	i	9.3	-17.2	1.9	-4.0	-0.8	-4.6	-36.4
36	COc1cccc(-n2nnc3c(=O)n(Cc4cccc(F)c4)cnc32)c1	i	3.6	-9.0	1.9	-4.3	-6.9	-2.9	-6.8
37	COc1ccccc1N1CCN(C(=O)c2ccc(-c3ccc(Cl)cc3)o2)CC1	.	53.6	-12.4	.	-8.4	-12.8	.	-26.5
38	CN(c1ccccc1)S(=O)(=O)c1ccc(NC(=O)COc2ccccc2)cc1	i	-0.8	5.7	-3.1	-1.0	-4.6	-13.0	0.7
39	COc1ccc(CCNC(=O)C2CC(=O)N(c3ccc(Br)cc3)C2)cc1OC (stereo not drawn)	i	-11.1	1.7	2.1	0.5	2.7	-0.6	20.8
40	COc1ccc(OC)c(-c2c(=O)n(OCc3ccccc3Br)c3ccccc3[n+]2[O-])c1	i	-4.1	.	-4.4	-3.0	-1.8	5.6	12.3
41	CCOc1ccc(NC(=O)Cc2ccc(NC3=NC4CS(=O)(=O)CC4S3)cc2)cc1 (stereo not drawn)	i	.	-23.8	0.5	2.3	4.8	-11.8	7.6
42	O=C1Cc2ccccc2Sc2ccccc21	i	-5.1	0.1	-8.6	-0.7	-0.7	-2.2	.
43	COc1nc(OC)nc(N2CCC(NC(=O)C(Cc3cccc(OC)c3OC)NC(C)=O)CC2)n1 (stereo not drawn)	i	-5.6	-21.6	-5.2	1.3	3.4	0.3	7.4
44	CC(O)(c1ccccc1)c1nc(-c2cccc(C(F)(F)F)c2)cs1 (stereo not drawn)	.	.	5.4	.	-4.9	-1.0	.	1.2
45	CC(C)Nc1nc(Cl)nc(NC2CCCCC2)n1	i	7.7	7.8	4.4	0.5	-6.3	-12.7	-4.4
46	COc1ccc(CNC(=O)CN2C(=O)C(C)N(c3ccc(C)cc3)C2=O)cc1 (stereo not drawn)	i	5.9	-6.5	-2.2	1.8	-0.3	-2.5	.
47	O=C(CN(Cc1ccccc1)S(=O)(=O)c1ccc(F)cc1)NCc1ccncc1	i	-6.6	-14.2	-1.4	-2.3	-2.9	-4.7	-6.2
48	CNc1cnn(-c2ccc(C)cc2)c(=O)c1Sc1ccc(C)cc1	i	2.6	.	21.8	-10.2	-2.7	-11.8	2.4
49	CC1(C)CC(C(=O)NCCC(c2ccccc2)c2ccco2)CCO1 (stereo not drawn)	i	2.5	1.6	-9.4	0.4	1.1	11.1	-2.6
50	C/C(=N\NC(=O)c1cc(C)nc2ccccc12)c1ccncc1	i	.	-7.0	-11.5	0.3	0.8	-9.3	-6.6

Exported with values under each structure: 2 of the compounds above
Each structure is followed by: Rce1 inhib	CSC inhib	UUG fidelity	PABP polyA inh	MT1-MMP act inh	MT1-MMP act inh RFP	eIF4H inh	Env fusion inh
(39) COc1ccc(CCNC(=O)C2CC(=O)N(c3ccc(Br)cc3)C2)cc1OC (stereo not drawn)
    i	-11.1	1.7	2.1	0.5	2.7	-0.6	20.8
(33) CC(C)c1nc2oc3c(N4CCN(C)CC4)ncnc3c2c2c1CCC2
    .	.	-8.1	23.8	-4.8	-10.4	9.7	-14.9

(next part)
#	Compound	Rce1 inhib	CSC inhib	UUG fidelity	PABP polyA inh	MT1-MMP act inh	MT1-MMP act inh RFP	eIF4H inh	Env fusion inh
51	COC(=O)c1[nH]c2ccc(C)cc2c1NC(=O)CN1CCN(C(=O)c2ccccc2)CC1	i	11.3	0.3	-0.3	-1.9	-5.6	1.8	-39.1
52	COc1cc(OC)nc(Nc2nc(C(C)N)cs2)n1 (stereo not drawn)	.	.	-43.5	.	3.3	6.0	.	15.1
53	C[C@@H](C(=O)Nc1nc2ccccc2s1)N1C(=O)C2CC=CCC2C1=O (stereo partly drawn)	i	-1.6	.	4.7	1.0	1.6	-5.8	1.6
54	COC(=O)c1sc(S(=O)(=O)N2CCC(C(=O)O)CC2)c(C(=O)OC)c1C	i	-5.5	-7.1	-2.2	3.7	14.0	-4.2	20.5
55	O=C(NCCc1ccc(F)cc1)c1cc(=O)c2ccccc2o1	i	-6.8	.	-4.7	-0.5	-0.3	2.7	-0.7
56	Nn1c(Cc2cccc3ccccc23)nnc1SC1CCOC1=O (stereo not drawn)	i	-17.8	.	3.8	1.6	2.3	7.2	-41.5
57	COc1cc(C(F)(F)F)nc(-c2ccccn2)n1	i	0.6	.	-9.8	0.2	3.6	-2.7	-17.0
58	Cc1c(C(=O)Nc2ccccc2[N+](=O)[O-])csc1-c1ccccc1	i	56.0	-8.4	-3.8	1.2	-1.2	2.9	-173.0
59	COc1ccccc1OCCNC(=O)c1ccco1	i	-3.1	-6.9	-0.2	4.1	4.5	-3.5	.
60	Cc1ccccc1-c1cc2nc(Nc3ccc(F)cc3)n(C)c(=O)c2s1	.	.	-16.3	.	5.9	1.7	.	-123.9
61	Cc1cccc(OCCCC(=O)Nc2ccc(N(C)C)cc2)c1	i	36.3	.	2.0	4.3	5.8	-8.0	-3.7
62	CN(C(=O)CNc1ccccc1Cl)C1CCS(=O)(=O)C1 (stereo not drawn)	.	-18.3	-14.8	.	-0.2	-0.2	.	5.5
63	Cc1ccc(NC(=O)Cn2c(=O)c3cccn3c3ccccc32)c(C)c1	i	-18.8	-1.9	-2.6	1.1	0.1	-6.8	-9.7
64	COc1ccc(-n2c(SCC(=O)NCCCN3CCCC3=O)nnc2C(C)N2CCCCC2)cc1 (stereo not drawn)	i	-9.6	.	-6.6	-1.4	0.4	2.8	16.1
65	Cc1ccccc1N1CCN(S(=O)(=O)c2ccccc2)CC1	i	-7.1	-5.7	-11.3	0.3	0.6	-3.6	2.6

High-throughput results from PubChem.
